Mtb hypoxia inh – inhibitors of hypoxia-regulated fluorescent reporter in Mycobacterium tuberculosis; M. tuberculosis hypoxia-regulated fluorescent reporter, fluorescence; fluorescence inhibition, % (test concentration not listed); 300,000 tested, 0.1% active; AID 1159583;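 active means 35 to 45% if threefold the growth effect, above 45% if 1.5-fold the growth effect; inactive means the rest, general growth blockers included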;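 further: wells of about 50 µL received 100 nL stock; 0% = vehicle wells and 100% = reference inhibitor wells; whole bacteria with a GFP reporter of the hypoxia response; strong numbers were not always called active; many hits fall short of the cut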
Sa ugtP lethal – kills S. aureus RN4220 lacking UgtP; growth inhibition, % (no concentration beside the values); AID 1259309; S. aureus RN4220 ugtP deletion, OD600 growth, 16 h; some inactives read as strong as hits; 330,000 tested, 0.54% active;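 active means z-score under -3 and OD600 up to 0.15 on both plates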;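 further: plate controls were untreated wells for no effect and antibiotic for full effect; wells of about 80 µL received 100 nL stock; the first replicate is given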
Sa RN4220 lethal – kills Staphylococcus aureus RN4220. S. aureus RN4220 growth, OD600, 16 h. inhibition, % (no concentration beside the values). 330,000 tested, 0.33% active;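 active means z-score of -3 or lower and OD600 up to 0.18 on both plates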;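 further: plate controls were untreated cells for no effect and reference antibiotic for full effect; stock transfer was 100 nL into about 80 µL; one replicate is shown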
BJeLR viability – BJeLR cell viability loss; inhibition, % (no concentration beside the values); BJeLR (HRASV12) viability, CellTiter-Glo ATP luminescence, 48 h; reference of the scale not given here; 300,000 tested, 0.17% active;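 active means replicate mean above 50%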;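 further: 50 nL library stock added to about 25 µL; numbers are from one replicate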
PrP UTR inh – suppresses PrP 5' UTR mRNA reporter expression | AID 488862 | 340,000 tested, 0.35% active | inhibition, % (no concentration beside the values) | cell-based PrP 5' UTR mRNA reporter, plate reader;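 active means every replicate at 50% or more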;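 further: 0 = median of the neutral control wells; tested in H4 reporter cells; numbers are from one replicate; inactives centre near -14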
Bead autofluor – counter-screen for toxin protease inhibitors: compound fluorescence. AID 624483. 360,000 tested, 3.1% active. fluorescence intensity (test concentration not listed). compound autofluorescence counterscreen, microsphere flow cytometry; stronger effect = higher value;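 active means at least 3 SD above the mean of all compounds, about 16000 in these data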;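 further: 100 nL of 1 mM stock went into each well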
Mtb hypoxia inh growth – also measured in Mtb hypoxia inh; calls as there; growth inhibition, %; measured here: M. tuberculosis growth (absorbance);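 0% = vehicle and 100% = reference antibiotic; read after six days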
* = called active by the depositor; / = no result given.

cpd	compound	Mtb hypoxia inh	Mtb hypoxia inh growth	Sa ugtP lethal	Sa RN4220 lethal	BJeLR viability	PrP UTR inh	Bead autofluor
1	Cc1cccc(NC(=O)CSc2nnc(CNC(=O)c3ccco3)n2C)c1	-11	2	15	3.2	-8	-25	4206
2	C/C(CC(=O)Nc1ccc(N(C)C)cc1)=N\NC(=O)c1ccc(Cl)cc1Cl	/	/	/	/	1	-6	3891
3	S=C1NC2(CCCCC2)Cc2ccccc21	4	5	6	-1.8	10	-11	7919
4	CCOc1ccc(NC(=O)CSc2nnc(C3CC3)n2C)cc1S(=O)(=O)N1CCCCC1	7	9	4	1.1	/	-13	3711
5	Cc1cc(C)n(CCN(C)C(=O)C2CCC(=O)N(CCc3cccc(F)c3)C2)n1 (centres undefined)	-2	-8	4	-0.9	2	-12	4188
6	O=C(Nc1cccc(-c2nc3ncccc3o2)c1)c1cc2ccccc2o1	/	/	7	20	-5	-18	4703
7	O=C(CN(C(=O)c1csnn1)c1ccccc1F)NC1CCCCC1	0	7	8	1.9	-1	-15	3770
8	Cc1[nH]c2ccccc2c1C(=O)C(=O)Nc1ccc2c(c1)OCCO2	-6	-4	-2	6.5	-1	-39	5591
9	O=C1c2ccccc2N2C(=O)c3ccccc3[C@H]2N1c1ccccc1	/	/	12	-0.5	4	-11	2626
10	CSc1cccc(NC(=O)C2CCN(S(=O)(=O)c3cnc[nH]3)CC2)c1	5	-8	5	3.1	-2	-6	4415
11	CCOc1cc(S(=O)(=O)N2CCN(c3ccc(F)cc3)CC2)c(OCC)cc1-n1cnnn1	7	-3	-4	0.3	4	-25	6924
12	O=C(O)CC(NC(=O)C12CC3CC(CC(C3)C1)C2)c1cccc([N+](=O)[O-])c1 (centres undefined)	2	2	-4	6.6	-11	-9	4182
13	O=S(=O)(/N=C(/Nc1cccnc1Cl)c1ccccc1)c1ccccc1	-4	4	3	4.8	/	-20	4053
14	CC1Cc2ccccc2N1C(=O)Cn1c(=O)oc2cc(S(=O)(=O)NC3CCCC3)ccc21 (centres undefined)	4	2	5	-4.7	-5	-4	4191
15	CCn1c2ccccc2c2nc3cc(S(=O)(=O)N4CCOCC4)ccc3nc21	-4	1	7	3.1	1	8	7049
16	CC(=NNC(=O)CCC(=O)Nc1cccc(Cl)c1)c1ccc(C)cc1	7	7	11	2.9	/	/	/
17	CCOC(=O)CN(C(=O)CSc1nnc(Cc2ccccc2)n1-c1ccc(C)cc1)c1ccccc1	12	10	-1	-5.7	-2	-7	3245
18	COC(=O)c1ccncc1C(=O)Nc1ccc(Oc2ncc(C(F)(F)F)cc2Cl)cc1	/	/	/	/	3	-18	4220
19	COc1ccc(CCN2C(=O)CC(NNC(=O)c3ccccc3Br)C2=O)cc1 (centres undefined)	1	-9	5	-1.2	-5	-12	2515
20	O=C(CSc1n[nH]c(=O)n1Cc1ccco1)c1ccc2c(c1)OCCO2	0	-3	-1	3.4	2	-46	2910
21	Cc1ccc(Nc2nc(-c3ccc(F)cc3)cs2)nc1	-2	6	-3	-4.0	-1	-92	3789
22	Cc1ccc2nc(C(O)C(O)c3nc4ccc(C)cc4[nH]3)[nH]c2c1 (centres undefined)	5	9	2	2.4	6	-54	6535
23	O=[N+]([O-])c1c(-c2cn[nH]c2)n[nH]c1-c1cn[nH]c1	7	5	5	2.7	7	-12	/
24	Cc1ccc2c(c1)Oc1ccc(NC(=O)CCl)cc1C(=O)N2	3	3	46	14	46	-24	2553
25	Cn1c(CCNC(=O)C2CCCCC2)nc2cc(NC(=O)c3cccs3)ccc21	-6	3	7	1.3	3	-25	3310
26	O=C(CSc1ccccc1)Nc1cc(Cl)ccc1Oc1ccccc1	4	3	11	1.3	-20	-28	2379
27	CSc1ccc(/C=C/C(=O)OCC(=O)NC2CCS(=O)(=O)C2)cc1 (centres undefined)	3	-4	1	5.5	/	-23	4269
28	CC(C)(C)OC(=O)NCCCCCNC(=O)c1nc[nH]c1C(=O)N1CCN(C(=O)OC(C)(C)C)CC1	10	3	1	5.7	/	-15	4292
29	CSc1nn2c(C(F)(F)F)cc(C(F)(F)F)nc2c1C(=O)O	10	13	-2	7.7	3	-30	4361
30	COc1cccc(C(=O)Nc2cnn(C(C)C)c2)c1	4	8	4	1.2	-20	-82	4187
31	CCC(C)(C)C1CCc2c(sc(N)c2C(N)=O)C1 (centres undefined)	10	7	-12	3.4	3	-14	6840
32	NC(=NOC(=O)c1ccc2c(c1)OCO2)c1ccc([N+](=O)[O-])cc1	3	5	0	1.0	/	/	/
33	O=C(C1CC1)N1CCc2cc(S(=O)(=O)NCc3ccccc3)ccc21	-3	-13	3	4.0	2	-7	4992
34	O=C(O)c1nn(Cc2ncc(-c3cccc(Cl)c3)o2)c(=O)c2ccccc12	-3	15	-11	2.4	-1	-11	3751
35	Cc1ccc(OCc2nnc(SCC(=O)Nc3cccc4ccccc34)n2-c2ccccc2)cc1	/	/	3	-7.6	1	-1	5053
36	CCCCCc1nnc(NC(=O)c2ccc3nc[nH]c3c2)s1	-2	-11	2	1.4	/	5	2909
37	O=C(Nc1cccc(Cl)c1)Nc1ccccc1C(=O)NCc1ccco1	/	/	-14	0.8	2	-18	2792
38	Cc1ccc(-c2nnc(Nc3ccccc3)c3ccccc23)cc1S(=O)(=O)NCC1CCCO1 (centres undefined)	0	16	-15	-2.2	-14	-7	21430*
39	COc1ccc(NC(=O)COC(=O)Cn2cnc3ccccc32)cc1	8	-5	9	4.0	/	-18	/
40	COC(=O)c1ccc(NC(=O)CON=C2CCCc3nonc32)cc1	0	0	2	3.5	/	/	/

Single records (already shown).
Record of CCn1c2ccccc2c2nc3cc(S(=O)(=O)N4CCOCC4)ccc3nc21 : Mtb hypoxia inh = -4; Mtb hypoxia inh growth = 1; Sa ugtP lethal = 7; Sa RN4220 lethal = 3.1; BJeLR viability = 1; PrP UTR inh = 8; Bead autofluor = 7049
Record of O=C(C1CC1)N1CCc2cc(S(=O)(=O)NCc3ccccc3)ccc21 : Mtb hypoxia inh = -3; Mtb hypoxia inh growth = -13; Sa ugtP lethal = 3; Sa RN4220 lethal = 4.0; BJeLR viability = 2; PrP UTR inh = -7; Bead autofluor = 4992

(continued)
cpd	compound	Mtb hypoxia inh	Mtb hypoxia inh growth	Sa ugtP lethal	Sa RN4220 lethal	BJeLR viability	PrP UTR inh	Bead autofluor
41	CCCOC(=O)C1=C(C)NC2=C(C(=O)CCC2)C1c1cccc(OC)c1OC (centres undefined)	-3	-5	6	3.7	-2	-19	7002
42	CCOC(=O)N1CCN(C(=O)/C(=C\c2ccc(SC)cc2)NC(=O)c2ccccc2)CC1	9	-2	8	1.6	-6	18	6227
43	O=C(CSc1nnnn1C1CCCCC1)Nc1ccc(F)cc1	0	10	5	11	2	-22	4696
44	Cc1ccc(NC(=O)Cc2nn(C)c(=O)c3ccccc23)cc1F	/	/	9	-0.8	4	-8	4263
45	Cc1cc(NN=Cc2cccc(F)c2)nc(NCc2ccccc2)n1	-12	-7	-27	-5.7	/	/	/
46	COc1ccccc1N(C(=O)c1csnn1)C(C(=O)NC1CCCC1)c1ccccc1 (centres undefined)	7	3	12	2.8	-11	-25	5753
47	COc1ccccc1Nc1nc(N)nc(-c2cc3ccccc3o2)n1	7	7	0	4.8	-9	26	8875
48	COc1ccc(C(=O)c2cn[nH]c2-c2cc(Cl)ccc2O)cc1	9	19	9	3.3	8	-1	16806*
49	Cc1ccnc(NS(=O)(=O)c2ccc(NS(=O)(=O)Cc3ccccc3)cc2)n1	-2	9	-1	0.0	5	-11	5061
50	CCc1ccc(NC2=CC(=O)CC(c3ccco3)C2)cc1 (centres undefined)	17	10	15	3.1	-4	-37	5227
51	CCc1ccccc1NC(=S)NC1CC2CCC(C1)N2Cc1ccc(F)cc1 (centres undefined)	10	4	4	-1.3	-16	-20	4370
52	O=C(C1CCC(=O)N(C2CC2)C1)N1CCN(c2ccccc2Cl)CC1 (centres undefined)	9	12	3	2.5	4	-15	5190
53	Cc1cc2oc(=O)cc(CN3CCN(S(=O)(=O)/C=C/c4ccccc4)CC3)c2cc1C	1	-9	-9	-8.6	-2	-12	2691
54	COc1cccc(CNC(=O)C2CCN(S(=O)(=O)c3cccc4cccnc34)CC2)c1	/	/	3	2.2	-2	9	5030
55	Cc1cc(NC(=O)CSc2nc3c(c(=O)n(C)c(=O)n3C)n2C(C)C)no1	11	1	8	4.8	5	-15	13392
56	CS(=O)(=O)c1ccc2nc(NC(=O)c3cc4ccccc4o3)sc2c1	/	/	12	6.5	-2	-50	3356
57	COc1ccc(NC(=O)CSc2nc(N)c(-c3ccccc3)c(=O)[nH]2)cc1	2	3	1	5.2	-1	-4	8138
58	COc1ccc(-c2nc3ccc(Cl)cn3c2NC2CCCCC2)cc1SC1CCCCC1	11	7	-5	-0.3	/	-8	4553
59	CC(N)C12CC3CC(C1)CC(C(C)N)(C3)C2 (centres undefined)	/	/	0	3.2	0	-8	2948
60	Cc1c(Cl)cccc1-n1c(SCC(=O)N2CCC(C(=O)O)CC2)nc2ccccc2c1=O	5	6	14	-1.3	-1	-24	3701
61	CC1CCCCN1C(=O)COc1ccccc1F (centres undefined)	-2	12	3	-1.4	1	-18	4046
62	CCOC(=O)N1CCC(NC(=O)c2ccc3c(c2)N=C(C)c2ccccc2S3)CC1	-9	-2	-6	3.6	-4	-20	6122
63	C=CCSc1nc2c(c(=O)[nH]1)C(c1ccccc1)C(C#N)=C(N)O2 (centres undefined)	-1	4	6	7.2	-2	-26	4701
64	CC1=NN(c2ccccc2)C(=O)/C1=C\C=C1\N(C)c2ccccc2C1(C)C	14	3	-16	7.2	-17	-16	2094
65	CCOC(=O)CC1C(=O)NCCN1C(=O)COc1ccc(C(C)(C)C)cc1 (centres undefined)	14	10	-1	5.4	-9	-27	5445
66	Cc1ccccc1N(C)C(=O)C1CCCN(c2ncnc3c2nc2n3CCCCC2)C1 (centres undefined)	5	7	-4	-3.4	-2	-17	6269
67	C/C(CC(=O)Nc1ccc(N(C)C)cc1)=N\NC(=O)c1ccc(F)cc1	/	/	/	/	-16	-29	3225
68	CC(C)Oc1ccc(C(=O)Nc2nnc(SCC(=O)N3CCOCC3)s2)cc1	3	10	5	2.5	-3	47	2035
69	COc1ccc(CNC(=O)[C@@H]2CCCN2C(=O)[C@@H]2Cc3ccccc3CN2C(=O)OC(C)(C)C)cc1	-3	1	-1	-0.2	-10	-22	5705
70	CC1(C)Cc2c(cnn2-c2ccc(F)cc2)C(NC(=O)CCN2CCCCO2)C1 (centres undefined)	7	0	10	4.6	0	-15	5034
71	Cc1ccc(CNC(=O)CCC(=O)N2CC(C)Sc3ccccc32)cc1 (centres undefined)	/	/	-3	8.0	-12	-11	5643
72	COc1ccc(NC2CCCN(C(=O)C3=NN(C)C(=O)CC3)C2)cc1OC (centres undefined)	15	5	4	2.7	-1	-31	5122
